Source: PubChem BioAssay (several laboratories)
GALR2 ag: agonists of human galanin receptor 2 (GALR2). hit rate 0.48% among 140,000. AID 803. GALR2-expressing cells, agonist activation read-out. activation, %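 (tested at 5 µM)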;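 active = above mean plus 3 SD of all compounds, about 5% in these data, not always enough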;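 also: 0% = vehicle buffer wells and 100% = reference agonist at full effect; tested in CHO reporter cells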
Target sequence (O43603 whole entry, looked up): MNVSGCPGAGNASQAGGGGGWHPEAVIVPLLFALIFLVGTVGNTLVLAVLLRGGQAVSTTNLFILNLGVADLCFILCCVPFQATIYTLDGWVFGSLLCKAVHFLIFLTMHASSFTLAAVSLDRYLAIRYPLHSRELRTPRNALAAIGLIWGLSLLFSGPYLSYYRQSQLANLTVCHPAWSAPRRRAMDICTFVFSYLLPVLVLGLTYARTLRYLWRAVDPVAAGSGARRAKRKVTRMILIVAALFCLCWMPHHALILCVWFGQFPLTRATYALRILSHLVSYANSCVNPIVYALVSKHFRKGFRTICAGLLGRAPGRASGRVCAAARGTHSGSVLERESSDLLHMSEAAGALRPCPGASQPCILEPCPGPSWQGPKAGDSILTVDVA
INS promoter inh: TRM-6 insulin promoter activity inhibition; inhibition, % at 2 µM; hit rate 0.9% among 130,000; TRM-6 cells (human fetal islet line), insulin promoter-eGFP reporter, imaging; reporter expression induced with tamoxifen; AID 1273;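 active = inhibition above the mean plus 3 SD, with well images judged a real hit on visual review, cut at about 60% in these data, passing the limit was not always enough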
RGS16-Gao HTS: regulators of human RGS16-Galphao interaction. O15492+P09471. bead-based flow cytometry RGS16-Galphao binding, fluorescence; actives lie on both sides. binding response (% of control), % at 10 µM. hit rate 0.38% among 220,000;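 active = below 25% or above 175%, edge rows of some plates excepted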;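 also: Galphao activated by GDP with aluminum fluoride before binding; 100% = wells without compound and 0% = beads without RGS; some results beyond the cut were filed as inactive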
Target sequence (O15492 whole entry, looked up): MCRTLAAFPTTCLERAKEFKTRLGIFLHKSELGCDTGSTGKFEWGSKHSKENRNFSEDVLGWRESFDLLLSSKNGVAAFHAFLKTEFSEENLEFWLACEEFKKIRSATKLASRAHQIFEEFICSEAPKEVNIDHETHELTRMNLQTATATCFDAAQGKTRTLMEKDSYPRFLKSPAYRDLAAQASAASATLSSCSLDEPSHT
Target sequence (P09471 whole entry, looked up): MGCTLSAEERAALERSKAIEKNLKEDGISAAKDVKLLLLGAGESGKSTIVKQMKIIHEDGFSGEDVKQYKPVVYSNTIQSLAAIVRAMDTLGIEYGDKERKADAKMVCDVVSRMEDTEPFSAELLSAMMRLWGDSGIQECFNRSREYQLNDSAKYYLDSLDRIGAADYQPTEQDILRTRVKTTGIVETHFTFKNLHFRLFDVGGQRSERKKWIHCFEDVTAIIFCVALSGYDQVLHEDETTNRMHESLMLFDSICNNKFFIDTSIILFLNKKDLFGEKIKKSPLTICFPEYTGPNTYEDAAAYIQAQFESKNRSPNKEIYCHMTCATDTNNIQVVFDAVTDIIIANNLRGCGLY
PKD1 inh: PKD1 (human) kinase inhibition | AID 797 | PKD1 kinase fluorescence polarization assay | hit rate 0.056% among 200,000 | inhibition, %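 (about 10 µM by stock and volumes)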;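 active = inhibition of 50% or more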;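 also: controls were vehicle for no effect and a reference inhibitor for full effect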
HSV augment: HSV replication enhancement. hit rate 0.005% among 220,000. AID 1956. maximum fold increase. HSV replication augmentation in cells, fold increase;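 active = peak rise of 1.5-fold or more in the series; tested in PC3 cells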;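 also: first round at 10 µM; read as green reporter fluorescence; hits show the peak of a series up to 25 µM; 1 = signal of infected wells without compound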
INS promoter inh cell count: recorded beside INS promoter inh, whose call it bears; normalized cell count, %; measured here: cell count, toxicity; reference of the scale not given here;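 cells exposed to compound for 48 h; stained nuclei by imaging scaled within each plate; lower means fewer cells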
HSV augment primary fold: also measured in HSV augment; calls as there; fold increase; compound at 10 µM; measured here: primary screen fold increase 10 uM; tested in PC3 cells;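 GFP signal in the first replicate; 1 = infected wells without compound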
Active calls of the source: *; i = inactive; nt = no result given.

SMILES	GALR2 ag	INS promoter inh	INS promoter inh cell count	RGS16-Gao HTS	PKD1 inh	HSV augment	HSV augment primary fold
CCOC(=O)Cc1c(C)nc2c(-c3ccc(Cl)cc3)c(C)[nH]n2c1=O	-3.0	4	129	45	0	i	0.76
CCCCNC(=O)c1cccc(C(=O)NCCCC)c1	-2.1	29	102	79	0	i	0.97
CC(C)Oc1cccc(C(=O)NC(=S)Nc2cccc(NC(=O)c3ccccc3Cl)c2)c1	1.3	-38	59	32	-13	i	0.99
Cc1ccc(C(=O)Nc2cccc(C(F)(F)F)c2)cc1NC(=O)c1nccn1C	nt	nt	nt	99	nt	i	0.65
COc1ccc(N(CC(=O)NCc2ccco2)S(=O)(=O)c2ccccc2)cc1	nt	nt	nt	68	-1	i	0.91
CCOc1ccc(NC(=O)CN(C2CCCCC2)S(C)(=O)=O)cc1	-3.6	-8	119	103	-3	i	0.79
CCCn1c(SCC(=O)Nc2cccc(C)n2)nc2c1c(=O)n(C)c(=O)n2C	nt	-17	53	91	-11	i	1.1
COc1ccc(C(CC(=O)c2ccc(C)cc2)Nc2ccc([N+](=O)[O-])cc2)cc1 (stereo unspecified)	-1.3	-19	137	103	-6	i	0.98
COc1ccc(/C(N)=N/OC(=O)C2CCC(=O)N2S(=O)(=O)c2ccc(C)cc2)cc1OC (stereo unspecified)	-0.6	-37	149	108	-6	i	0.82
CCCCOC(=O)c1cccc(NC(=O)CC)c1	-1.4	62	110	103	6	i	0.91
COc1cc(NC(=O)CN2C(=O)NC(C)(CC(C)C)C2=O)cc(OC)c1 (stereo unspecified)	0.0	-39	117	109	-1	i	0.84
COc1cccc(-c2cc(C(F)(F)F)nc(N3CCN(c4ccccc4)CC3)n2)c1	-2.1	7	92	108	-12	i	0.88
Cc1cccc(N(NC(=O)C(C)(C)O)C(=O)c2ccccc2)c1	-0.5	0	94	100	0	i	0.97
O=C(CCN1C(=O)c2ccccc2C1=O)Nc1cc(F)ccc1F	0.8	-52	115	105	-2	i	0.99
O=C1Nc2ccccc2C12Nc1ccccc1S2 (stereo unspecified)	-0.5	-9	65	93	-3	i	0.88
Cc1c(NC(=O)c2noc3c2CCc2ccccc2-3)c(=O)n(-c2ccccc2)n1C	-0.9	nt	nt	nt	-3	i	0.97
O=C(CSc1nnc(-c2ccco2)n1CC1CCCO1)N1CCCCC1 (stereo unspecified)	1.3	-43	60	101	-2	i	0.99
CCOC(=O)N1CCN(C(=O)c2cn(CC)c3ccc(S(=O)(=O)N4CCCC4)cc3c2=O)CC1	-1.1	39	39	98	5	i	0.86
CC12CCC(C(=O)NCc3ccc(Cl)cc3)(OC1=O)C2(C)C (stereo unspecified)	-0.8	30	131	104	-6	i	0.92
Cc1ccc2oc(=O)c3cnn(CC(=O)N4CCCCCC4)c3c2c1	-1.7	nt	nt	100	0	i	1.1
O=S(=O)(c1cnc[nH]1)N1CCN(c2ccc(F)cc2)CC1	nt	nt	nt	101	nt	i	0.85
Cc1cc(C)c(S(=O)(=O)N2CCOC2CNC(=O)C(=O)NCc2cccnc2)c(C)c1 (stereo unspecified)	-0.1	-22	107	104	-5	i	0.91
CCn1cc(C2=NCCO2)c2ccccc21	-1.9	nt	nt	114	-9	i	0.98
CSCCNC(=O)c1cccc(Cl)c1	nt	nt	nt	97	-5	i	0.94
CCN(CC)S(=O)(=O)c1ccc(N2CCOCC2)c(NC(=O)CCOc2ccccc2)c1	nt	nt	nt	101	nt	i	0.81
CC(=O)/C(=N/Nc1cccc(Cl)c1)N1CCOCC1	-2.0	5	49	105	11	i	1.1
CSc1nc(C)c2c(n1)N(c1ccc(C(F)(F)F)cc1)CC2	-3.0	16	116	93	13	i	1
COC(=O)c1ccc(Cn2nnc3ccccc3c2=O)o1	-0.5	55	55	79	-1	i	0.86
CSc1nc2c(c(=O)[nH]1)C(c1cccc(Cl)c1)CC(=O)N2 (stereo unspecified)	nt	nt	nt	98	-7	i	0.92
Cc1cccc2c(N=O)c(O)[nH]c12	nt	nt	nt	98	nt	i	0.99
Cc1onc(-c2c(Cl)cccc2Cl)c1C(=O)ONC(=O)c1ccccc1	nt	nt	nt	99	nt	i	1.1
CCOP(=O)(/C(C#N)=C(/O)c1ccccc1)c1ccccc1 (stereo unspecified)	nt	nt	nt	100	nt	i	1.1
CN1CCc2c(OCc3ccc(F)cc3)cccc2C1=O	nt	nt	nt	104	-3	i	0.93
COc1ccc(OCCSc2nnc(Cc3cccc4ccccc34)n2N)cc1	-1.5	-27	148	102	3	i	0.9
O=C(Cc1ccc(S(=O)(=O)N2CCOCC2)s1)NCCC(c1ccccc1)c1ccccc1	-0.6	15	101	95	-4	i	0.94
CC(=O)c1ccc(N2CCN(C(=O)c3cc4c(-c5ccccc5F)nn(C)c4s3)CC2)cc1	-3.0	nt	nt	108	-15	i	0.83
CCCS(=O)(=O)N1CCN(CCCc2ccccc2)CC1	-2.8	9	106	102	8	i	0.97
CN(C(=O)COc1ccccc1C(=O)NCCOc1ccccc1)c1ccccc1	-1.8	-38	81	99	8	i	0.52
CCCOc1cccc(NC(=O)c2cc(C)oc2C)c1	-2.6	-12	97	94	-5	i	0.85
O=S(=O)(N1CCCCC1)N1CCN(c2ccc(F)cc2)CC1	-1.9	-43	37	100	-3	i	1.1
Cc1ccc2cc(CCNC(=O)c3cccc([N+](=O)[O-])c3)c(=O)[nH]c2c1	nt	nt	nt	108	-4	i	0.9
CC(=O)Oc1ccc(N2C(=O)C3C(C2=O)C2C=CC3C23CC3)cc1[N+](=O)[O-] (stereo unspecified)	nt	-71	98	95	-10	i	0.99
NS(=O)(=O)c1ccc(CCNC(=O)c2cc(-c3ccccc3)nc3ccccc23)cc1	-1.2	nt	nt	107	-9	i	0.86
CCc1cccc(C)c1N1C(=O)CC(C)(C)CC1=O	nt	nt	nt	97	nt	i	1
COc1ccc(/C=C/C(=O)Nc2nonc2NC(C)=O)cc1	-2.2	nt	nt	95	-1	i	1
OC(COc1ccc2c(c1)OCO2)CN1CCCCC1 (stereo unspecified)	nt	nt	nt	102	2	i	0.87
C=CCc1ccc(OCCN2CCc3ccccc3C2)c(OC)c1	nt	nt	nt	101	-4	i	0.94
Cc1cc2ccccc2cc1CN1CCOCC1	0.2	-91	113	99	-6	i	1
O=C1CCCN1CC(O)CS(=O)(=O)c1ccccc1 (stereo unspecified)	-3.0	2	127	100	-1	i	0.86
COc1cc2c3c(c1)C(C)=CC(C)(C)N3C(=O)C2=O	nt	nt	nt	107	-1	i	1.1
O=C(NC1CCCCNC1=O)c1ccccc1 (stereo unspecified)	nt	nt	nt	97	nt	i	0.87
CCCCC1=CC2=CC(=O)C(C)(OC(=O)CC)C(=O)C2=CN1Cc1ccc(OC)cc1 (stereo unspecified)	nt	nt	nt	105	nt	i	0.96
COc1cc(/C=N/NC(=O)c2sc3nc(C)cc(C)c3c2N)ccc1O	nt	nt	nt	102	nt	i	0.74
N=C1/C(=C\c2ccc(-c3cc(Cl)cc(Cl)c3)o2)C(=O)N=C2SC=C(c3ccccc3)N12	-0.6	nt	nt	104	1	i	1.1
CC(C)NC(=S)N=Nc1c(O)[nH]c2ccc([N+](=O)[O-])cc12	nt	nt	nt	100	0	i	0.83
O=C1CSC(c2ccccn2)N1c1ccc2ccccc2c1 (stereo unspecified)	-0.1	-13	78	100	-5	i	0.74
O=C(CN1CCOCC1)Nc1ccc(N2CCN(c3ccccc3)CC2)c(F)c1	nt	nt	nt	100	10	i	0.89
CN(Cc1ccccc1)c1nc(-c2ccc([N+](=O)[O-])cc2)nc2ccccc12	-1.7	53	71	107	-1	i	1.1
CCC(C)NC(=O)c1ccc2c(SCC(=O)O)c3c(nc2c1)CCCC3 (stereo unspecified)	-1.9	28	48	97	-7	i	0.98
O=C(c1ccco1)N1CCN(Cc2nc3ccc([N+](=O)[O-])cc3c(=O)n2-c2ccccc2F)CC1	-2.0	35	107	101	-3	i	0.89
(next part)
SMILES	GALR2 ag	INS promoter inh	INS promoter inh cell count	RGS16-Gao HTS	PKD1 inh	HSV augment	HSV augment primary fold
CCOc1cc(C(c2c(C)[nH][nH]c2=O)c2c(C)[nH][nH]c2=O)ccc1O	-0.9	26	139	100	-8	i	1
FC(F)(F)c1cc(CCN2C(=S)NC[C@@H]2Cc2ccccc2)cc(C(F)(F)F)c1	nt	nt	nt	104	-5	i	0.63
O=C(c1ccc2c(c1)OCO2)N1CCCC(c2ccccc2)C1 (stereo unspecified)	-1.6	33	109	98	6	i	0.86
Cc1ccc(N(C(=O)C2CCC(=O)N2)C2(C(=O)NC3CCCC3)CCCCC2)cc1 (stereo unspecified)	-2.1	39	112	109	4	i	1.1
CC(=O)NCC(=O)OCC(=O)Nc1ccc(C(C)=O)cc1	-0.2	19	99	104	5	nt	nt
Cc1cc(C(=O)OCC(=O)c2cccc([N+](=O)[O-])c2)c2cccc(C)c2n1	-2.1	nt	nt	55	-3	nt	nt
O=C(Nc1ccc(N2CCOCC2)c(Cl)c1)c1ccc([N+](=O)[O-])o1	nt	nt	nt	94	-9	i	0.58
CC12CC3(C)CC(C)(C1)CC(C(=O)NC(=S)NC(C)(C)C)(C2)C3	-1.2	33	93	80	-5	i	0.95
O=C(O)CCCn1nc(-c2ccccc2)c2ccccc21	-0.1	nt	nt	105	-6	i	1.1
COC(=O)c1ccccc1NC(=O)CSc1nc(O)c(-c2ccccc2)c(=O)[nH]1	nt	-12	131	101	2	i	0.93
Cc1sc2cc3c(c(C(=O)c4ccccc4)[n+]2c1C)-c1cccc2cccc-3c12	-1.5	-46	93	100	-9	i	0.51
O=C(Nc1ccc2[nH]c(=O)[nH]c2c1)c1ccc(Cl)c(Cl)c1	nt	nt	nt	96	0	i	0.89

Part of the list above, as labelled records.
> Cc1cc(C(=O)OCC(=O)c2cccc([N+](=O)[O-])c2)c2cccc(C)c2n1
  GALR2 ag: -2.1
  INS promoter inh: nt
  INS promoter inh cell count: nt
  RGS16-Gao HTS: 55
  PKD1 inh: -3
  HSV augment: nt
  HSV augment primary fold: nt
> O=C(Nc1ccc(N2CCOCC2)c(Cl)c1)c1ccc([N+](=O)[O-])o1
  GALR2 ag: nt
  INS promoter inh: nt
  INS promoter inh cell count: nt
  RGS16-Gao HTS: 94
  PKD1 inh: -9
  HSV augment: i
  HSV augment primary fold: 0.58
> CC12CC3(C)CC(C)(C1)CC(C(=O)NC(=S)NC(C)(C)C)(C2)C3
  GALR2 ag: -1.2
  INS promoter inh: 33
  INS promoter inh cell count: 93
  RGS16-Gao HTS: 80
  PKD1 inh: -5
  HSV augment: i
  HSV augment primary fold: 0.95
> O=C(O)CCCn1nc(-c2ccccc2)c2ccccc21
  GALR2 ag: -0.1
  INS promoter inh: nt
  INS promoter inh cell count: nt
  RGS16-Gao HTS: 105
  PKD1 inh: -6
  HSV augment: i
  HSV augment primary fold: 1.1

Other entries follow.
SMILES	GALR2 ag	INS promoter inh	INS promoter inh cell count	RGS16-Gao HTS	PKD1 inh	HSV augment	HSV augment primary fold
Cc1ccc(C(=O)N/N=C\c2sccc2C)cn1	nt	nt	nt	115	-4	i	0.99
Fc1ccc2[nH]c3c(c2c1)CN(C(=S)NCc1ccccc1)CC3	nt	nt	nt	101	nt	i	1.1
O=C(Nc1ccccc1OC(F)F)c1oc2ccccc2c1COc1ccccc1	-0.3	38	153	86	3	i	0.86
CC(C)C(O)(C#CCN1CCCC1)c1ccccc1 (stereo unspecified)	-2.2	26	47	103	-4	i	1.1
CC(C)CCNC(=O)/C=C/c1ccc(Br)cc1	-1.0	43	65	115	-14	i	0.87
COc1cccc(-n2c(SCC(=O)Nc3cc(C)on3)nc3c([nH]c4ccccc43)c2=O)c1	0.7	nt	nt	104	-15	i	0.83
C[N+]1(CC(=O)Nc2ccc(F)cc2)CCN(C(=O)c2ccco2)CC1	-2.7	3	222	101	-10	i	0.97
CCC(NS(=O)(=O)c1ccc(C)cc1)C(=O)N1CCC2(O)CCCCC2C1 (stereo unspecified)	-1.0	-4	136	110	1	i	0.88
N#Cc1c(NC(=O)CSc2nc(-c3ccccc3)cc(C(F)(F)F)n2)sc2c1CCC2	-0.8	-63	94	95	-4	i	0.81
CCCCC(CC)C(=O)Oc1ccc(O)c(C(C)(C)C)c1 (stereo unspecified)	nt	nt	nt	102	-7	i	1
COCC(C)n1c(C)cc(C(=O)CSc2nc3ccccc3c(=O)[nH]2)c1C (stereo unspecified)	-1.4	nt	nt	103	-4	i	0.98
COC(=O)c1sc(S(=O)(=O)Nc2ccc(C)cc2)c(C(=O)OC)c1C	-1.5	-15	98	106	-4	i	0.95
COc1ccccc1OCC(=O)NNC(=O)C(=O)N1CCCC1	-1.0	nt	nt	104	-8	i	1
O=C(c1ccco1)n1nc(NCc2ccccc2)nc1NCc1ccccc1	-2.2	3	154	101	6	i	0.91
Cc1ccc(NC(=O)c2cc(NC(=O)C3CC=CCC3C(=O)O)ccc2N2CCOCC2)cc1 (stereo unspecified)	-1.1	nt	nt	98	-13	i	1
COCCn1c(C)cc(C(=O)COC(=O)CNC(=O)c2ccccc2)c1C	-0.2	33	56	111	-9	i	0.98
